StopGo RLuc: Primary qHTS Assay for Foot and Mouth Disease Virus Antivirals against NCGC Sytravon and CBC Compound Libraries: Renilla Luciferase Signal. HEK cells with a luciferase reporter of 2A StopGo recoding. Potency, µM (top dose mostly 57.5 µM), for inactives: at the highest dose signal change, negative = less light. 0.32% of 120,000 active; active means well fitted falling curve with a large enough effect; inconclusive means small, poorly fitted or top-dose-only effect; inactive means no such curve, though single readings can be large or run the other way; further: nearly all actives have a fitted effect of over 55% in size; overnight with compound
2A firefly: Primary qHTS Assay for Foot and Mouth Disease Virus Antivirals against NCGC Sytravon and CBC Compound Libraries: Firefly Luciferase Signal; Potency, µM (top dose mostly 57.5 µM), without a hit: at the highest dose signal change, negative = less light; HEK cells with a luciferase reporter of 2A StopGo recoding; 0.23% of 120,000 active; AID 1745856, 2022; active = well fitted falling curve with a large enough effect; inconclusive = small, poorly fitted or top-dose-only effect; inactive = no such curve, though single readings can be large or run the other way; further: nearly all actives have a fitted effect of over 60% in size; overnight with compound
Numbers without * were called inactive; ? = inconclusive; & = joins results of further samples; [ ] = dose if it differs, or a comment. On the % scale 0 is the no-effect control and ±100 the full control effect; potency means the concentration at half of the fitted maximal effect. These rows are one share of the data (hit frequency here may not be typical).

Results follow in this order: StopGo RLuc	2A firefly
CCOc1ccccc1N1CCN(CC(=O)Nc2cc(Cl)ccc2Cl)CC1
  -3%	-5%
CCOc1ccc(C2c3c(oc4ccc(C)cc4c3=O)C(=O)N2CCCN(C)C)cc1 (stereo not given)
  45%[activator]	91%[activator]
COCCOC(=O)/C(C#N)=C\c1cc(C)c(O)c(C)c1
  -4%[1.06 µM]	0%
O=C1CC(=O)CC(c2ccc(Cl)cc2)C1
  45%[activator][1.06 µM]	?
Cc1cc(C)cc(C(=O)OCCN2CCN(C3CN(Cc4cn(Cc5ccccc5F)nn4)S(=O)(=O)C3)CC2)c1 (stereo not given)
  ?	?
COc1cc(OC)c2c(C)c(CC(=O)Nc3ccc4c(c3)OCO4)c(=O)oc2c1
  -8%	12%
CCOc1ccc(CN2C(=O)c3ccccc3Sc3ccc(C(=O)NC)cc32)cc1
  -10%	-14%
COc1ccc(Cn2c(C(=O)O)c(CNCCc3cccs3)c3ccc(OC)cc32)cc1
  35%[activator]	-9%
Cc1cc(NC(=O)C(C)(C)C)cc(-c2nc3ccccc3o2)c1O
  11%	4%
CCOc1ccc(NC(=O)c2oc3ccccc3c2NC(=O)c2cc3ccccc3o2)cc1
  2%	177%[activator]
CCOc1ccc(NC(=O)Cn2nnc(C(=O)NCCc3ccccc3)c2N)cc1
  -11%	0%
O=C(c1cccs1)N(Cc1ccc2cc[nH]c2c1)C1CC1
  19%	14%
CCC(=O)C(CC(C)N(C)C)(c1ccccc1)c1ccccc1 (stereo not given)
  -18%[114 µM]	-6%[22.9 µM]
CCC(C(=O)Nc1ccccc1C(=O)OC)n1c(C)c2cnn(-c3ccccc3)c(=O)c2c1C (stereo not given)
  -7%	-10%
C/C(=N\NC(=O)c1cccs1)c1ccc(Br)cc1
  14%	52%[activator]
N#CC1=C(N)OC2=C(C(=O)CC(c3ccccc3)C2)C1c1cccs1 (stereo not given)
  2%	-4%
Cc1cccc(NC(=O)c2cc(S(=O)(=O)N3CCN(c4ccccc4F)CC3)ccc2F)c1C
  -1%	-16%
N#Cc1ccc(Sc2ccc(Oc3cccc(Sc4ccc(C#N)c(C#N)c4)c3)cc2)cc1C#N
  -5%	-4%
CCS(=O)(=O)c1ccccc1C(=O)N(Cc1cccnc1)c1nc2cc(C)c(C)cc2s1
  5%	48%[activator]
CC(C)COc1ccc(C2CC(=O)Nc3c(-c4ccccc4)csc32)cc1 (stereo not given)
  14%	0%
CCOCCCNC(=O)Cn1ccc2cc(S(=O)(=O)N3CCCCC3)ccc21
  45%[activator]	6%
Cc1ccc(Cl)cc1NC(=O)CN1C(=O)C(C)(C)c2cc(S(=O)(=O)N3CCCCC3)ccc21
  -10%	-15%
COc1cccc(CNC(=O)c2ccc(N3CCCC3)c(NC(=O)Nc3ccccc3F)c2)c1
  1%	5%
CCOC(=O)N1CCN(C(=O)c2ccc(N3CCCCS3(=O)=O)cc2Cl)CC1
  ?	?
CN(C)c1ccc(CNC(=O)CCCN2C(=O)CCn3nc(-c4cn(C)c5ccccc45)cc32)cc1
  -24%	-25%
COc1cc(Nc2nn(-c3ccc(OC(F)(F)F)cc3)nc2C(C)=O)cc(OC)c1
  -14%	-12%
Cc1ccccc1C(=O)N(CCCN(C)C)c1nc2ccc(F)cc2s1
  -17%	-9%
Cc1cc(C)cc(NS(=O)(=O)c2ccc3[nH]cc(C(=O)N(C)Cc4ccccc4)c(=O)c3c2)c1
  229%[activator]	24%
c1cc(-c2ccn[nH]2)ccn1
  -10%	-1%
CCOC(=O)c1cnc2cc(-c3ccc(OCC)cc3)nn2c1-c1ccccc1
  -4%	-10%
CCCNC(=O)C(C)OC(=O)c1cc2ccc(OC)cc2nc1C (stereo not given)
  4%	34%[activator]
O=C(CSc1nc2ccccc2s1)c1ccc2c(c1)OCCCO2
  0%	19%
COC(=O)c1c(C)[nH]c(C(=O)N2CCCC2c2ccc(OC)c(OC)c2)c1C (stereo not given)
  18%	3%
Cc1nc(-c2ccccc2)sc1CCNS(=O)(=O)c1ccc(Br)cc1
  290%[activator]	55%[activator]
CCOCCCNC(=O)CCSc1ccccc1
  13%	13%
Cc1ccc(Cl)c(O)c1
  -9%	-10%[11.5 µM]
CC(=O)c1ccc(NC(=O)C2CC(=O)N(C(C)(C)C)C2)cc1 (stereo not given)
  -3%	1%
NC(=O)C(Sc1cc(Cl)ccc1Cl)c1ccccc1 (stereo not given)
  6%	2%
COc1ccc(C2c3c(n(C)c4ccccc34)C(=O)N2CC(=O)Nc2ccc(F)cc2)cc1 (stereo not given)
  -14%	-16%
Cc1ccc(NC(=O)C2CCCN2S(=O)(=O)c2cccc3cccnc23)cc1C (stereo not given)
  104%[activator]	15%
Cc1ccc(Cn2ccn(Cc3ccccc3C)c(=O)c2=O)cc1
  -5%	-1%
Cc1ccc(CNC(=O)c2ccc(Cn3c(=O)c4ccccc4n(CC(=O)Nc4ccc(C)cc4C)c3=O)cc2)cc1
  6%	2%
CC1CCN(C(CNC(=O)c2ccccc2SC(F)F)c2cccs2)CC1 (stereo not given)
  24%	19%
CC(C)c1ccc(-n2nnnc2SCCCn2c(=O)c3c(ncn3C)n(C)c2=O)cc1
  -8%	-5%
COc1cc(NC(=O)c2cc(C)nc3ccccc23)cc(OC)c1OC
  17%	12%
CCCC(O)c1nc2ccccc2n1CCCCOc1ccc(OC)cc1 (stereo not given)
  ?	?
COc1ccc2c(c1)-c1nc(NC(=O)c3cccc(Br)c3)sc1CC2
  -3%	11%
CCOc1ccccc1C(=O)OCC(=O)NCCc1ccc(OC)cc1
  -3%	-4%
C=CCNC(=O)C(C#N)c1nc2ccccc2nc1N1CCCCC1 (stereo not given)
  30%	0%
Cn1c(C(=O)N2CCN(C(=O)c3cccc(F)c3)CC2)cc2ccccc21
  1%	6%

Further records:
Results follow in this order: StopGo RLuc	2A firefly
O=C(O)CCCNc1cc(N2CCN(C3CCCCC3)CC2)c2noc3c2c1C(=O)c1ccccc1-3
  -10%	-14%
O=C1CSc2sc(=S)sc2SC1
  26%	0%
CCn1c2ccccc2c2nnc(SCC(=O)Nc3ccccc3OC)nc21
  -22%	-6%
O=C(C(Sc1nncn1-c1ccccc1)c1ccccc1)N1CCOCC1 (stereo not given)
  -5%	13%
CCOc1ccc(NC(=O)c2nc3ccccc3nc2N(CC)CC)cc1
  1%	6%
COc1ccc(C(CNC(=O)c2oc3ccc(Cl)cc3c2C)N2CCCCC2)cc1 (stereo not given)
  -13%	-7%
CCNC(=O)c1c(NC(=O)c2ccc(C)cc2)sc2c1CCCC2
  7%	1%
Cc1ccc2oc(=O)c3cc(C(=O)NCCc4ccc(Cl)cc4)sc3c2c1
  -12%	-33%
Cc1ccc(NC(=O)C(C)SC(c2ccccc2)c2ccccc2)cc1F (stereo not given)
  22%	?
COc1ccc(CNC(=O)CN(C)S(=O)(=O)c2ccc3c(c2)c(=O)n(C)c(=O)n3C)cc1
  -3%	5%
Cc1ccc(OCC(=O)N2CCN(c3ncccn3)CC2)c(C)c1
  2%	14%
O=C(COC(=O)c1cc(S(=O)(=O)N2CCOCC2)ccc1N1CCCCC1)NC1CC1
  -3%	-7%
CCOc1ccc(NC(=O)CSc2oc(-c3cccs3)nc2S(=O)(=O)c2ccc(C)cc2)cc1
  10%	-10%
OC(COc1ccccc1F)CN(Cc1ccccc1)CC(O)COc1ccccc1F (stereo not given)
  156%[activator]	17%
CC(N)CC(C)(C)c1ccccc1 (stereo not given)
  0%	-3%
Cc1ccc(-c2noc(-c3ccccc3NC(=O)C3CC(=O)N(c4cccc(C)c4)C3)n2)cc1 (stereo not given)
  6%	79%[activator]
CC(CCc1ccccc1)NC(=O)CSc1nc2cc(S(=O)(=O)N3CCOCC3)ccc2o1 (stereo not given)
  15%	-21%
Cc1ccc(C)c(C(NC(=O)c2ccccc2F)c2cccnc2)c1 (stereo not given)
  7%	14%
COc1cccc(N2CCN(C(=O)CCn3nc(C)c(S(=O)(=O)N4CCCC4)c3C)CC2)c1
  -7%	-14%
COc1ccc(OCC(=O)Nc2ccc(-c3nc4cc(C)c(C)cc4o3)cc2)cc1
  3%&8%	178%&108%[activator]

Three entries from above, reformatted:
Molecule	StopGo RLuc	2A firefly
Cc1ccc2oc(=O)c3cc(C(=O)NCCc4ccc(Cl)cc4)sc3c2c1	-12%	-33%
Cc1ccc(NC(=O)C(C)SC(c2ccccc2)c2ccccc2)cc1F (stereo not given)	22%	?
COc1ccc(CNC(=O)CN(C)S(=O)(=O)c2ccc3c(c2)c(=O)n(C)c(=O)n3C)cc1	-3%	5%

The listing picks up, starting five compounds before the break.
Results follow in this order: StopGo RLuc	2A firefly
Cc1ccc(-c2noc(-c3ccccc3NC(=O)C3CC(=O)N(c4cccc(C)c4)C3)n2)cc1 (stereo not given)
  6%	79%[activator]
CC(CCc1ccccc1)NC(=O)CSc1nc2cc(S(=O)(=O)N3CCOCC3)ccc2o1 (stereo not given)
  15%	-21%
Cc1ccc(C)c(C(NC(=O)c2ccccc2F)c2cccnc2)c1 (stereo not given)
  7%	14%
COc1cccc(N2CCN(C(=O)CCn3nc(C)c(S(=O)(=O)N4CCCC4)c3C)CC2)c1
  -7%	-14%
COc1ccc(OCC(=O)Nc2ccc(-c3nc4cc(C)c(C)cc4o3)cc2)cc1
  3%&8%	178%&108%[activator]
COc1ccc(NC(=O)CSc2nc(-c3ccccc3)nc3c2Cc2c(CO)cnc(C)c2O3)cc1Cl
  -2%	-15%
Cc1cc(NC(=O)C2CC2)sc1C(=O)NCc1ccc(Cl)cc1Cl
  26%	-1%
COc1cc(NC(=O)C(Cc2ccccc2)NS(=O)(=O)c2cccs2)cc(OC)c1 (stereo not given)
  58%[activator]	7%
CC(Oc1ccccc1)C(=O)Nc1ccc(OCc2cc(=O)n3ccsc3n2)cc1 (stereo not given)
  5%	13%
O=C(CSc1nc2c([nH]c3ccccc32)c(=O)n1-c1ccc(Cl)cc1)N1CCOCC1
  -7%	-8%
C=CCCCCCCCCC(=O)O
  -1%	-17%[11.5 µM]
COc1ccc(OCC(=O)Nc2cc(-c3nn(C)c(=O)c4ccccc34)ccc2OC)cc1
  4%	8%
O=C(Cn1nc(C(F)(F)F)c2c1CCCC2)Nc1ccc(Br)cc1
  10%	-5%
CCCCN(CCCC)S(=O)(=O)c1ccc2oc(C(=O)NCc3ccccc3)c(C)c2c1
  44%[activator]	17%
COc1cc(C2c3c(oc4ccccc4c3=O)C(=O)N2Cc2ccccc2Cl)ccc1O (stereo not given)
  -30%	-2%
CCCCn1c(N)c(N(CC(C)C)C(=O)c2cc3c(s2)CCC(C)C3)c(=O)[nH]c1=O (stereo not given)
  22%	11%
CCc1ccc(NC(=O)CCC2=C(C)NS(=O)(=O)N=C2C)cc1
  0%	2%
COc1cccc(N2CCN(C(=O)C3CCN(S(=O)(=O)c4ccc5c(c4)oc(=O)n5C)CC3)CC2)c1
  -6%	-10%
COCC(C)N(C)C(=O)c1cc2ccccc2c(OC)n1 (stereo not given)
  30%[activator]	9%
CC(NC(=O)CSc1nnc(-c2cccnc2)n1-c1ccccc1)c1ccc2c(c1)OCCO2 (stereo not given)
  -1%	136%[activator]
CCN(CC)S(=O)(=O)c1cc(-c2ccc(=O)n(C(C)C(=O)Nc3cccc(C#N)c3)n2)ccc1C (stereo not given)
  -3%	-17%
O=C(CSc1cn(CC(=O)N2CCCC2)c2ccccc12)Nc1ccccc1C(F)(F)F
  3%	-3%
COc1ccc(NC(=O)C(C(C)C)N2Cc3ccccc3C2=O)cc1 (stereo not given)
  22%	12%
O=C1N(CCCc2ccccc2)c2ccccc2C1(O)c1c[nH]c2ccccc12 (stereo not given)
  0%	-4%
COc1cccc(Cn2c(CNC(=O)Cc3cccc(C)c3)nc3cccnc32)c1
  35%[activator]	-7%

Compound profiles, as listed above. Values in the order: StopGo RLuc, 2A firefly
CCCCn1c(N)c(N(CC(C)C)C(=O)c2cc3c(s2)CCC(C)C3)c(=O)[nH]c1=O (stereo not given) across the screens: 22%, 11%
CCc1ccc(NC(=O)CCC2=C(C)NS(=O)(=O)N=C2C)cc1 across the screens: 0%, 2%
COCC(C)N(C)C(=O)c1cc2ccccc2c(OC)n1 (stereo not given) across the screens: 30%[activator], 9%
CCN(CC)S(=O)(=O)c1cc(-c2ccc(=O)n(C(C)C(=O)Nc3cccc(C#N)c3)n2)ccc1C (stereo not given) across the screens: -3%, -17%

The list goes on.
Results follow in this order: StopGo RLuc	2A firefly
Cc1ccc(-c2nc(CN3CCN(C(=O)C4CCCO4)CC3)co2)c(C)c1 (stereo not given)
  ?	?
Cc1cnc2c(S(=O)(=O)NC(c3cccs3)C(C)C)cccc2c1 (stereo not given)
  1%[1.06 µM]	-7%
Cc1ccc(-c2cnc(CCC(=O)NCc3ccc(OCC(F)(F)F)cc3)o2)cc1
  -8%	-2%
N#Cc1ccc(N2CCC(C(=O)Nc3ccc(S(=O)(=O)N4CCCC4)cc3)CC2)nc1
  47%[activator]	0%
Brc1cccc(N=Cc2c3ccccc3cc3ccccc23)c1
  -5%	48%[activator]

Compound activity as filed in PubChem.
